From PubChem
miR-21 FLuc – miR-21 reporter, rising signal. HeLa miR-21 FLuc reporter, luciferase, 48 h. Potency, µM (top dose mostly 38.3 µM), without a hit: top-dose reporter change, positive = more light. 340,000 tested, under 10 active. AID 2288; active = well fitted rising curve with a large enough effect; inconclusive = small, poorly fitted or top-dose-only effect; inactive = no such curve, though single readings can be large or run the other way;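 also: % of control where 0% means no effect; miR-21 action dims this reporter so a rising signal means less miR-21 action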
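Compounds were titrated across several concentrations (up to approximately 40 uM) and incubated 48 hours with HeLa miR-21-FLuc reporter cells (miR-21 target sequence downstream of FLuc, endogenous miR-21). Readout was firefly luciferase luminescence after lytic detection reagent.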
GLA inh pH 4.5 – alpha-galactosidase A (human) inhibition, pH 4.5; AID 1467; activity change, negative = inhibition, % at 105 µM; purified enzyme, 4-MU-alpha-Gal fluorescence, pH 4.5; P06280; 230,000 tested, under 10 active; inconclusive = small, poorly fitted or top-dose-only inhibition, or a rising curve; inactive = flat fitted curve, though single readings scatter; no compound was filed as active;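 also: 0% = full activity with enzyme and -100% = basal without enzyme; dose as in the result columns while the protocol names 77 µM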
Target sequence (P06280 whole entry, looked up): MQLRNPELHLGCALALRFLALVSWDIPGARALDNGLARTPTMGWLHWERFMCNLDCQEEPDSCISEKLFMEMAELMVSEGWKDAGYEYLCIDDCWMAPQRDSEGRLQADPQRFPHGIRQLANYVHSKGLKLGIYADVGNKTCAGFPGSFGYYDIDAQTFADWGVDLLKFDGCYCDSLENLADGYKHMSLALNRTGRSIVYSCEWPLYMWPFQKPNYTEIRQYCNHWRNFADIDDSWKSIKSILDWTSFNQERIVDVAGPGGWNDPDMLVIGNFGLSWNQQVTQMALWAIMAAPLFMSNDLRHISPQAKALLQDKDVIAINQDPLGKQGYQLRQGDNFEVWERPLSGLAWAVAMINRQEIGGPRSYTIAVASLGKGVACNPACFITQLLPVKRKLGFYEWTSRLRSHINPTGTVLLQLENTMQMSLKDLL
Rango complex inh – Rango-importin beta binding inhibition | Rango CFP/YFP FRET sensor + importin beta, 45 min | Q14974 | Potency, µM (doses to about 92.2 µM), for the others: top-dose inhibition of complex formation | hit rate 0.031% among 340,000; active = rising FRET ratio curve, often small or poorly fitted; inconclusive = mostly compound fluorescence or quenching in the first reads; inactive = flat curves in all reads;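 also: potency is read from the fitted curve at half-maximal effect; 0% = DMSO wells and 100% = buffer wells lacking importin beta; nearly all actives have a fitted effect of over 15% in size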
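FRET biosensor Rango (snurportin 1 IBB between N-terminal EYFP and C-terminal Cerulean), 50 nM in PBS/1 mM DTT/0.02% Tween-20/0.1% BSA, preincubated 5 min RT with compound; 0.125 microM importin beta added, 45 min RT, CFP/YFP FRET ratio read.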
Rango dissoc inh – inhibition of RanGTP-driven Rango-importin beta dissociation; Biochemical FRET Rango-importin beta, RanGTP-induced dissociation; Potency, µM (series often up to 46.1 µM), inactives show at the highest dose activity change, negative = inhibition; hit rate 0.071% among 340,000; active means falling FRET ratio curve, often poorly fitted, with flat reads before Ran was added; inconclusive means other falling curves, or compound fluorescence or quenching; inactive means flat or rising ratio curve;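 also: potency is read from the fitted curve at half-maximal effect; % of control where 0% means no effect; nearly all actives have a fitted effect of over 45% in size; -100% = wells without RanGTP and RCC1; the record marks most hits as doubtful in a second field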
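Compounds preincubate 5 min with complex of recombinant Rango and importin beta in PBS with 1 mM DTT. Ran (0.6 uM) loaded with 2 mM GTP plus 0.2 uM RCC1 starts dissociation; FRET is recorded 45 min later.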
* hit, by the source's call; ? = inconclusive; nt = no result given.

Compound,miR-21 FLuc,GLA inh pH 4.5,Rango complex inh,Rango dissoc inh
Cc1cc(NC(=O)CCC(=O)N(CC(=O)NC2CCCC2)Cc2cccs2)no1,0%,-10,-0.7%,13%
CCOC(=O)C(C)Oc1cccc2c(=O)n(CC(=O)N3CCN(C(=O)OCC)CC3)ccc12 (stereo not drawn),0%,-1,-0.3%,-11%
COc1ccc(CCNC(=O)CSCc2c(F)cccc2Cl)cc1OC,-10%,1,-0.1%,1%
CC(C)c1ccc(N(CC(=O)NCc2ccco2)C(=O)CCC(=O)Nc2nccs2)cc1,-4%,nt,0.0%,39%
Cc1ccc(S(=O)(=O)N(C)C)cc1NC(=O)C(C)OC(=O)c1ccc2c(=O)n3c(nc2c1)CCC3 (stereo not drawn),nt,nt,-5.5%,-15%
CCOC(=O)Cc1csc(NC(=O)CN2CCOCC2)n1,-1%,nt,4.7%,21%
CCOC(=O)C1(CCCc2ccccc2)CCN(Cc2nccn2CC)CC1,7%,-5,1.6%,2%
CCOc1ccccc1C(=O)NC1CC2CCCC(C1)N2Cc1ccccc1 (stereo not drawn),-6%,-4,-0.5%,-6%
O=C(C1CCN(S(=O)(=O)c2cc(Cl)ccc2Cl)CC1)N1CCOCC1,3%,nt,-3.3%,9%
O=C(O)CCCCCNS(=O)(=O)/C=C/c1ccccc1,-1%,9,-2.5%,1%
Clc1ccc(N/N=C/c2cccnc2)cc1,-27%,-15,-1.6%,0%
CC(Sc1ccc(S(=O)(=O)N2CCCC2)cn1)C(N)=O (stereo not drawn),nt,nt,0.1%,23%
CCCNC(=O)C(Cc1ccc(C(F)(F)F)cc1)NC(=O)c1ccc(C#N)cc1 (stereo not drawn),nt,nt,2.1%,-19%
Cc1nc(-c2cccc(NC(=O)c3cc4cc(Br)ccc4oc3=O)c2)cs1,-8%,-1,0.2%,10%
CCC1(C)Cc2ccccc2-c2nc(NCCCO)[nH]c(=O)c21 (stereo not drawn),5%,-2,1.8%,4%
COC(=O)CC(c1ccc(F)cc1)n1c(C)ccc1C (stereo not drawn),-1%,-7,-0.8%,-8%
O=C(N/C=C/c1ccco1)Nc1cccc(Cl)c1,-11%,-3,?,-30%
CCC(C)[C@H](NC(=O)NCc1ccco1)C(=O)OC (stereo partly drawn),4%,1,2.3%,1%
C[C@H](N)C(=O)N1CCC(C(=O)N[C@@H](Cc2ccccc2)C(=O)Nc2ccc(F)cc2)CC1,-1%,nt,-1.0%,9%
CNC(=O)N(O)C1N(/N=C/c2cccs2)C(=S)SC1(C)C (stereo not drawn),-3%,-14,0.5%,-12%
CCc1cc2ccccc2nc1Cl,0%,-3,4.3%,-12%
O=C(COC(=O)c1n[nH]c(=O)c2ccccc12)Nc1ccccc1F,nt,nt,0.7%,-5%
Nc1nc(=S)c2ncn(C3OC(CO)CC3O)c2[nH]1 (stereo not drawn),nt,nt,-2.5%,45%
O=C(O)c1ccccc1CSC1=NCCS1,-5%,-14,-1.9%,5%
CCOC(=O)c1c(NC(=O)CC2Nc3ccccc3NC2=O)sc(C)c1C (stereo not drawn),-19%,8,?,-2%
COc1cccc(CN2CCC(Oc3ccc(C(=O)NCc4ccccn4)cc3)CC2)c1,0%,nt,3.0%,-12%
COC(=O)c1sccc1NC(=O)Nc1cccc(OC)c1,-5%,nt,1.0%,-4%
O=P(COCCOCP(=O)(c1ccccc1)c1ccccc1)(c1ccccc1)c1ccccc1,-5%,1,-0.6%,1%
CC12CN3CC(C)(CN(C1)C3c1ccc(Br)cc1O)C2 (stereo not drawn),-8%,6,-7.0%,-1%
CC(NC(=O)c1ccccc1)c1nc2ccccc2n1Cc1ccccc1F (stereo not drawn),1%,6,nt,nt

Continued; the last six above are carried over.
Compound,miR-21 FLuc,GLA inh pH 4.5,Rango complex inh,Rango dissoc inh
CCOC(=O)c1c(NC(=O)CC2Nc3ccccc3NC2=O)sc(C)c1C (stereo not drawn),-19%,8,?,-2%
COc1cccc(CN2CCC(Oc3ccc(C(=O)NCc4ccccn4)cc3)CC2)c1,0%,nt,3.0%,-12%
COC(=O)c1sccc1NC(=O)Nc1cccc(OC)c1,-5%,nt,1.0%,-4%
O=P(COCCOCP(=O)(c1ccccc1)c1ccccc1)(c1ccccc1)c1ccccc1,-5%,1,-0.6%,1%
CC12CN3CC(C)(CN(C1)C3c1ccc(Br)cc1O)C2 (stereo not drawn),-8%,6,-7.0%,-1%
CC(NC(=O)c1ccccc1)c1nc2ccccc2n1Cc1ccccc1F (stereo not drawn),1%,6,nt,nt
CCCCCOc1ccc(N2C(=O)CC(N(O)c3ccccc3)C2=O)cc1 (stereo not drawn),-15%,-1,-1.8%,-12%
O=C(O)C1C2C=CC(C2)C1C(=O)Nc1nccs1 (stereo not drawn),0%,8,0.6%,2%
O=C(Nc1ccc2c(c1)OCO2)C1CCN(Cc2cc3c(cc2O)OCO3)CC1,-4%,nt,-5.0%,1%
Cc1cc(C)nc(SCCC(=O)N2CCOCC2)n1,-14%,6,-0.3%,1%
CC(C)=CC(=O)OCC(=O)Nc1cccc([N+](=O)[O-])c1,-6%,-3,8.7%,3%
CCOC(=O)c1cnc(Nc2nc3ccccc3o2)nc1CSc1nnc(C)s1,nt,nt,3.9%,-24%
Cc1cc(NC(=O)CN2C(=O)/C(=C/c3cccc(Br)c3)SC2=S)no1,4%,-23,-4.0%,-21%
COc1ccc(C(=O)N2CCN(c3ccc(C(C)=O)cc3F)CC2)cc1S(=O)(=O)NC1CC1,nt,nt,-0.1%,3%
O=C(O)CSc1nc2ccccc2o1,-7%,-5,-4.4%,-4%
O=C(Cn1nnc(-c2ccccc2Cl)n1)NCc1ccc2c(c1)OCO2,-4%,5,-3.5%,4%
Cc1cc(=O)n2nc(N3CCC(C(=O)N4CCN(C)CC4)CC3)sc2n1,-6%,5,-1.4%,?
CCC(C(=O)OCC(=O)N(CC)c1c(N)n(Cc2ccccc2)c(=O)[nH]c1=O)c1ccccc1 (stereo not drawn),nt,nt,-1.5%,-5%
C=CC[C@H](CC(=O)N(CCO)Cc1ccccc1)C(=O)N[C@H](COC(=O)[C@@H](CC=C)CC(=O)OC(C)(C)C)Cc1ccccc1,nt,nt,-2.0%,1%
Cc1ccc(C(=O)N2CCN(c3ccc([N+](=O)[O-])c(NCc4cccnc4)c3)CC2)cc1,-1%,-14,0.0%,13%
COc1ccc(N(CC(=O)NCc2ccccc2OC)S(=O)(=O)c2c(C)nn(C)c2C)cc1,-7%,-7,3.6%,0%
CC(=O)c1cc(Cl)ccc1OCC(=O)NC1CCCC1,nt,nt,-2.4%,38%
N#CC(=C(O)CN1CCN(c2ccccc2F)CC1)c1nc(-c2ccc(Cl)cc2)cs1,nt,nt,?,1%
CNC(=O)c1c(NC(NC(=O)c2ccco2)C(=O)c2ccc(Cl)cc2)sc2c1CCCC2 (stereo not drawn),-3%,-1,-3.9%,-28%
CCOC(=O)C(Cc1ccc(O)c([N+](=O)[O-])c1)N1C(=O)c2ccccc2C1=O (stereo not drawn),nt,nt,0.4%,23%
CC12CCC(=O)N1C(C(=O)NCCN1C(=O)S/C(=C\c3ccc(F)cc3)C1=O)CS2 (stereo not drawn),nt,nt,-0.5%,29%
CONC(=O)C1CCN(C(=O)OCc2ccccc2)CC1,-33%,-4,-0.4%,4%
CCCN(C(=O)c1ccc([N+](=O)[O-])c(C)c1)c1c(N)n(Cc2ccccc2)c(=O)[nH]c1=O,nt,nt,?,-8%
CCC(=O)Nc1ccc(-c2csc(C)n2)cc1,-63%,2,-0.1%,-2%
CC1Oc2ccccc2N(CC(=O)Nc2ccccc2F)C1=O (stereo not drawn),-2%,nt,0.0%,2%
Cc1cc(C)n(-c2nc3nonc3nc2-n2nc(C)cc2C)n1,-6%,-2,5.3%,4%
CCS(=O)(=O)N1CCCC(C(=O)NCCc2ccccc2)C1 (stereo not drawn),-7%,2,-3.3%,-14%
Cc1ccccc1Cn1cc(NC(=O)c2noc(C(C)C)c2[N+](=O)[O-])cn1,0%,nt,4.6%,-17%
Cc1cc(C)cc(NC(=O)CCCSc2nc3ccccc3[nH]2)c1,-4%,-4,-1.2%,-4%
CC(C)Cc1nnc(NC(=O)c2cc([N+](=O)[O-])ccc2N2CCOCC2)s1,-25%,nt,1.7%,10%
COc1ccc(S(=O)(=O)Nc2ccccc2C(=O)NC(C)C)cc1OC,-3%,4,-0.5%,-11%

In a second layout: 5 of the compounds above.
The line under a structure holds: miR-21 FLuc	GLA inh pH 4.5	Rango complex inh	Rango dissoc inh
- Cc1cc(C)n(-c2nc3nonc3nc2-n2nc(C)cc2C)n1
 : -6%	-2	5.3%	4%
- CCS(=O)(=O)N1CCCC(C(=O)NCCc2ccccc2)C1 (stereo not drawn)
 : -7%	2	-3.3%	-14%
- Cc1ccccc1Cn1cc(NC(=O)c2noc(C(C)C)c2[N+](=O)[O-])cn1
 : 0%	nt	4.6%	-17%
- Cc1cc(C)cc(NC(=O)CCCSc2nc3ccccc3[nH]2)c1
 : -4%	-4	-1.2%	-4%
- CC(C)Cc1nnc(NC(=O)c2cc([N+](=O)[O-])ccc2N2CCOCC2)s1
 : -25%	nt	1.7%	10%

Continued:
Compound,miR-21 FLuc,GLA inh pH 4.5,Rango complex inh,Rango dissoc inh
COc1ccc(N2CCN(c3ccc(NC(=O)C4CCCCC4)cc3C#N)CC2)cc1,-2%,0,-2.0%,-7%
COc1ccc(NS(=O)(=O)c2cccc(C(=O)N3CCCC3)c2)cc1,nt,nt,-2.9%,0%
Cc1sc(=NC(=O)c2ccco2)n(C)c1-c1ccc(F)cc1,-35%,-18,2.0%,1%
COc1ccc(S(=O)(=O)N2CCOC2CNC(=O)C(=O)NCCCn2ccnc2)cc1OC (stereo not drawn),-5%,-9,?,-10%
O=C(/C=C/c1c(F)cccc1Cl)N1CCOCC1,-43%,nt,-1.9%,8%
COCCNC(=O)CC(c1ccccc1)c1ccccc1,-2%,7,-0.6%,9%
Cn1c(C(=O)OC(C(=O)NC2CCCC2)c2cccnc2)cc2sccc21 (stereo not drawn),-15%,-5,?,4%
O=[N+]([O-])c1ccccc1/C=N\N1CCN(Cc2ccccc2Cl)CC1,-18%,nt,-1.8%,33%
Oc1ccccc1-c1cc(-c2ccccc2)n[nH]1,nt,nt,0.3%,-13%
COc1ccc(N(C)S(=O)(=O)c2cccc(C(=O)NC3CCC(C)CC3)c2)cc1 (stereo not drawn),-8%,-3,2.2%,0%
Brc1ccccc1C1Nc2cccc3cccc(c23)N1,12%,nt,2.2%,-8%
COc1ccc(OC)c(NC(=O)CSc2nnc(-c3cnccn3)n2C)c1,4%,nt,0.8%,-6%
O=C(Nc1ccc(S(=O)(=O)Nc2cnc3ccccc3n2)cc1)c1cc(F)c(F)cc1Cl,-24%,nt,-0.4%,0%

This is a subset, so the mix of outcomes need not match the whole.
